High-throughput results from PubChem.
Autofluor counter: compound fluorescence in toxin protease inhibitor counterscreen; fluorescence intensity (test concentration not listed); compound autofluorescence counterscreen, microsphere flow cytometry; active compounds read high; 360,000 compounds, 3.1% hits;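 active = at least 3 SD above the mean of all compounds, about 16000 in these data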;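 note: 100 nL of 1 mM stock went into each well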
PrP 5UTR inh: inhibition of PrP 5' UTR reporter expression; cell-based PrP 5' UTR mRNA reporter, plate reader; AID 488862, 2010; inhibition, % (concentration not given with the values); 340,000 compounds, 0.35% hits;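 active = every replicate at 50% or more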;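 note: 0 = median of the neutral control wells; tested in H4 reporter cells; numbers are from one replicate; inactives centre near -14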
* hit, by the source's call. Not all compounds are listed; count on the stated rates, not on these rows.

SMILES	Autofluor counter	PrP 5UTR inh
Cc1cc(=O)oc2c(CN3CCCCC3)c(O)ccc12	3230	-13
Cc1ccc(N2CCNCC2C)cc1 (configuration not stated)	4517	-14
COc1ccc(-c2sc3ccccc3c2-c2ccc(O)cc2)cc1	4165	-12
O=C(COC(=O)c1ccccc1Br)NC1CCCCCCC1	3587	-26
O=S1(=O)c2ccc(Br)cc2N2CCC[C@@H]2CN1Cc1ccc(Cl)cc1	3832	-3
COc1cc(C2c3cc4c(c(O)c3CC3COC(=O)C32)OCO4)cc(OC)c1OC (configuration not stated)	3001	52
COc1ccc(CN2Cc3cnnn3-c3ccccc3C2C)cc1 (configuration not stated)	3342	-14
CC(C)c1cccc(C(C)C)c1OC(=O)[C@H]1OC(C(C)(C)C)=C[C@@H]1c1ccccc1	3669	-20
CCOC(=O)[C@H]1[C@H]2COc3ccc(Br)cc3[C@H]2N2C(=O)CNC(=O)[C@@]12C	3481	-28
CC(=O)N1Cc2cnnn2-c2ccccc2C1C#N (configuration not stated)	3528	-15
Nc1ncnc2c(C3OC(CO)C(O)C3O)scc12 (configuration not stated)	3912	58*
OCC(O)C1OC(c2ccccc2)OC(CO)C1O (configuration not stated)	4794	-5
O=C(O)c1ccccc1C(=O)OC1CCCC2CCCC21 (configuration not stated)	3434	-18
COc1ccc(C(=O)c2ccccc2CN2C(=O)c3ccccc3C2=O)cc1	3771	-3
O=c1[nH]c2cnn(-c3ccccc3)c2c(=O)n1O	3972	50
Cc1c(Cl)cccc1Nc1n[nH]c(=S)s1	3540	71*
C#CCOCCOCCOCCNc1nc(N2CCN(C(=O)CCCCCCCCCCNC(=O)Cn3cc(CCCCCN)nn3)CC2)nc(N2CCN(C(=O)CCCCCCCCCCNC(=O)[C@H]([C@@H](C)CC)n3cc(CCCCN=C(N)N)nn3)CC2)n1	2979	4
O=C1CC/C=C\C[C@@H](CC(=O)N(CCO)Cc2ccccc2)C(=O)N[C@H](Cc2c[nH]c3ccccc23)CO1	4435	-20
COC(=O)c1c(-c2ccccc2OC)sc2cc3c(cc12)OCO3	3637	4
C/C(=N\NC(=O)c1ccccc1)c1cc2cc([N+](=O)[O-])ccc2oc1=O	2035	-17
C=CC[C@@H](CC(=O)NCCO)C(=O)N[C@@H](COC(=O)[C@@H](CC=C)CC(=O)OC(C)(C)C)Cc1c[nH]c2ccccc12	4224	-45
OCCN(Cc1cccnc1)Cc1ccccn1	5578	2
C/C(=C\c1ccc2c(c1)OCO2)C1Nc2cccc3cccc(c23)N1	3347	-48
COC(=O)C1=C(c2cccc(OCc3ccccc3)c2)C[C@@H]2CC[C@H]1N2C(=O)NCc1ccccc1	4067	0
COC(=O)C1=C(c2cccc(OCc3ccccc3)c2)C[C@@H]2CC[C@H]1N2C(=O)NCCOc1ccc(OC)cc1	3427	-16
CC(=O)c1ccccc1NC(=O)CN1C(=O)NC2(CCCCCCC2)C1=O	2989	-9
Cc1ccc(CN2C(=O)N/C(=C\c3ccc(-c4ccc(C(=O)O)cc4C)o3)C2=O)cc1	4144	-19
N#Cc1c(N)[nH]c2ccc(Sc3ccccc3)cc12	3715	48
Cc1cccc(CSc2nc3ccccc3c(=O)n2C)c1	3504	-21
COc1ccc(OC)c(Cc2cnc3nc(N)nc(N)c3c2C)c1	4177	65*
Nc1nc(=O)c2ccccc2s1	4187	-20
NC(N)=N/N=C(\N=Nc1ccccc1)c1cccc2cccnc12	4005	-16
COc1cc(Nc2nc3c(N)cc(C(F)(F)F)cc3nc2-c2ccccc2)cc(OC)c1OC	4056	-41
CC(C)(C)OC(=O)C[C@@H]1C/C=C\C[C@H](CC(=O)N[C@H](CO)Cc2ccccc2)C(=O)N[C@H](Cc2ccccc2)COC1=O	3457	-18
O=C(C[C@H]1C/C=C\CCCCC(=O)OC[C@H]2CCCN2C1=O)N[C@H](CO)Cc1ccccc1	3496	-10
CCc1ccc(NC(=O)CN2CCN(c3ccc(OC)cc3)CC2)cc1	3760	-27
CCC1CN2CCc3cc(OC)c(OC)cc3C2CC1CC1c2cc(OC)c(OC)cc2CCN1C(=O)C(Cc1c[nH]c2ccccc12)NC(=O)OC(C)(C)C (configuration not stated)	6036	-22
C=CS(=O)(=O)c1c2cc(OC)ccc2nc2ccc(OC)cc12	3427	-19
Cc1noc(C)c1NC(=O)Nc1ccc2c(c1)C(=O)N([C@H](C)CO)C[C@H](C)[C@@H](CN(C)S(C)(=O)=O)O2	2935	-3
COc1ccc(C2CN=NC2C(=O)c2ccccc2)cc1 (configuration not stated)	4496	-18
C=C1CCN([C@H](C(=O)NCc2ccc(Cl)cc2)C(C)C)S(=O)(=O)c2ccccc21	4077	1
O=C(CCCC(=O)NN=Cc1cccc(O)c1)NN=Cc1cccc(O)c1	4010	-4
CCOC(=O)[C@H]1[C@H]2COc3ccc(Br)cc3[C@H]2N2C(=O)CN(Cc3ccc(Cl)cc3)C(=O)[C@@]12C	3618	1
CCOC(=O)[C@H]1[C@H]2COc3cc(OC)ccc3[C@@H]2N2C(=O)CN(Cc3ccc(Cl)cc3)C(=O)[C@@]12C	3561	-24
CCOC(=O)[C@@H]1[C@H]2COc3cc(OC)ccc3[C@H]2N2C(=O)N(c3cccc(F)c3)C(=O)[C@@]12C	4222	-10
CC(C)C[C@@H](CN)NC(=O)c1nc[nH]c1C(=O)N[C@@H](Cc1ccccc1)C(=O)CNC[C@H](C)NC(=O)c1nc[nH]c1C(=O)N[C@@H](C)C(=O)O	3894	4
COc1oc(C(=O)NC2CCCCC2)c(-c2ccc(Cl)cc2)c1S(=O)(=O)c1ccccc1	3312	-15
C[C@@]12CCC[C@@](C)(C(=O)O)C1CC[C@@]13C[C@@H](NCc4ccccc4)[C@@](C)(CCC12)C3 (some centres not stated)	2895	-16
C[C@@H]1COC(=O)[C@H](NC(=O)OCC2c3ccccc3-c3ccccc32)C/C=C\C[C@@H](CC(=O)N[C@H](CO)Cc2ccccc2)C(=O)N1	3435	-9
CCNc1cc(O)ccc1C	4009	-14
COC(=O)C1=C(c2ccc(F)cc2OCc2ccccc2)C[C@@H]2CC[C@H]1N2C(=O)NC1Cc2ccccc2C1	3061	-6
C[C@@H](NC(=O)c1nc[nH]c1C(=O)N1CCc2ccccc2C1)c1ccccc1	3843	-13
CCOC(=O)c1ccc(-c2c(-c3ccccc3OC)sc3cc4c(cc23)OCO4)cc1F	3763	-8
C[C@H](CO)N1C[C@H](C)[C@@H](CN(C)CC2CCCCC2)Oc2c(NS(=O)(=O)c3ccccc3)cccc2C1=O	2803	-12
CC1O[C@H](OC2C(COC3OC(CO)C(O)[C@H](O)C3O)OC(OC3CC[C@]4(C)C(CC[C@@]5(C)[C@@H]4C=C[C@]46OC[C@@]7(CCC(C)(C)C[C@H]74)C(O)C[C@@]56C)C3(C)C)C(O)C2O)C(O)C(O)C1O (some centres not stated)	4041	-7
O=C(O)c1ccccc1NS(=O)(=O)c1ccc(N/N=C/c2cccc(O)c2O)c([N+](=O)[O-])c1	5215	3
CCc1ccccc1C1=CC(=O)C[C@H](c2ccc(OC)cc2)C1	4910	-12
COC(=O)C1=C(c2ccc(-c3ccccc3)c(F)c2)C[C@@H]2CC[C@H]1N2C(=O)N1CCCC1	3391	-12
O=C(C[C@H]1C/C=C\C[C@H](NC(=O)OCC2c3ccccc3-c3ccccc32)C(=O)OC[C@H](Cc2ccccc2)NC1=O)N[C@H](CO)Cc1ccccc1	3934	5
CCN(C[C@H]1N[C@@](Cc2ccccc2)(C(=O)OC)[C@H]2C(=O)N(Cc3ccccc3)C(=O)[C@@H]12)S(=O)(=O)c1ccccc1	3605	-11

Remaining list, next part
SMILES	Autofluor counter	PrP 5UTR inh
CC1(c2ccc3ccccc3c2)CCC(=O)O1 (configuration not stated)	3816	-21
O=C(N/N=C/c1ccc(Br)cc1)c1ccc(NC(=O)c2ccccc2)cc1	4384	-33
C#CCOCCOCCOCCNc1nc(N2CCN(C(=O)CCCCCCCCCCNC(=O)[C@H](CCCCN)n3cc(C)nn3)CC2)nc(N2CCN(C(=O)CCCCCCCCCCNC(=O)[C@@H]([C@H](C)CC)n3cc(CCCCCN)nn3)CC2)n1	3562	-13
COc1cccc(C2c3cc4c(cc3OC(NNC(N)=O)C2C)OCO4)c1O (configuration not stated)	2888	-2
C#CCOCCOCCOCCNc1nc(N2CCN(C(=O)CCCCCCCCCCNC(=O)[C@@H]([C@H](C)O)n3cc(C)nn3)CC2)nc(N2CCN(C(=O)CCCCCCCCCCNC(=O)[C@@H]([C@H](C)O)n3cc(C)nn3)CC2)n1	3988	-12
COc1c2ccc(OCC/C(C)=C/C(=O)C=C(C)C)cc2nc2occc12	4381	-6
C[C@H]1COC(=O)[C@@H](CC(=O)OC(C)(C)C)C/C=C\C[C@@H](CC(=O)N[C@H](CO)Cc2ccccc2)C(=O)N1	4043	-18
COc1ccccc1OCC(=O)OCc1cc(-c2ccco2)on1	3634	-13
CCOC(=O)[C@H]1[C@H]2COc3ccc(Br)cc3[C@@H]2N2C(=O)[C@H](C)NC(=O)[C@@]12C	3584	-22
CCCN1CCO[C@@H]2c3cc(O)ccc3OC[C@H]21	5942	-34
O=C(Oc1cccc2c(O)cccc12)c1ccco1	3251	-13
COC(=O)C1=C(C)N(Cc2ccccc2)C(=S)N[C@H]1c1cccc(C(F)(F)F)c1	4032	-15
O=C1CC=C2C3CC4N(CCC45c4cc(O)c(O)cc4N1C25)CC3=CCBr (configuration not stated)	2978	-7
O=S1(=O)CCN(c2ccccc2CC(c2c[nH]c3ccccc23)c2c[nH]c3ccccc23)CC1	3734	-22
COc1cc(C=CC(=O)c2cc(OC)c(OC)c(OC)c2)cc(OC)c1OC	2915	-16
c1cc2c(cc1N1CCCCC1)C1CC2CCN1 (configuration not stated)	3265	-4
COc1cccc(CN(C)CCCn2ccc(NC(=O)OCc3ccccc3)nc2=O)c1	3745	-3
N#CCCn1nc2c(c1N)CCC2	3489	-54
O=[N+]([O-])c1cccc(C=NN=C2c3ccccc3-c3ccccc32)c1	2805	1
CCOC(=O)[C@H]1[C@H]2COc3ccc(C)cc3[C@@H]2N2C(=O)CN(Cc3ccccc3)C(=O)[C@@]12C	3984	-19
CC1CC(C)CC(C)C(O)C(C#N)=CC=CCC(C2CCCC2C(=O)O)OC(=O)CC(O)C(C)C1 (configuration not stated)	3539	51
CC[C@]12C(=O)N(C)C[C@H]([C@@H]3C(=O)N(C)C(=O)[C@@H]31)N2C(=O)c1ccc(C(C)(C)C)cc1	3558	-19
C=CC[C@H]1C=C[C@@H](C(C(=O)OC)C(=O)OC)CN1C(C)=O	3747	0
CC#Cc1cc2c(cc1O)CCC1C2CCC2(C)C(O)CCC12 (configuration not stated)	4445	-64
COC(=O)C1=C(c2cccc(Cl)c2)C[C@@H]2CC[C@H]1N2C(=O)N1CCCC1	4077	-22
CCCCCCCCCCCCCCCC(=O)Nc1ccn(C2OC(CO)C(O)C2O)c(=O)n1 (configuration not stated)	3743	35
OCC1OCOC2C(CO)OCOC12 (configuration not stated)	3959	-33
Cc1ccc2c(c1C)C(=O)C(=O)N2	4278	21
COc1cccc(-c2sc3ccc(OC)cc3c2C#CCC(C)O)c1 (configuration not stated)	3559	-26
CC1C(=O)C(C)C(c2cc(Br)ccc2O)NC1c1cc(Br)ccc1O (configuration not stated)	3937	-14
O=[N+]([O-])c1ccccc1C=CC=NN=Cc1ccccc1O	3610	-69
N#C/C(=C\c1ccc(O)cc1)C(=O)O (tested in a mixture with another compound)	9257	-12
COc1ccc([C@H]2CC(=O)C=C(c3ccc(OC(F)(F)F)cc3)C2)cc1OC	3607	-29
COP(=O)(OC)C(Nc1ccc(C)cc1)c1ccc(Br)cc1 (configuration not stated)	3836	-18
CCOc1nc(OCC)c2[nH]c(C(=O)O)c(Br)c2n1	4188	-28
CCOC(=O)c1c(NC(=O)CN2CCN(S(=O)(=O)c3cc(Cl)ccc3Cl)CC2)sc(C(=O)N(C)C)c1C	3605	-18
C[C@H](CO)N1C[C@H](C)[C@@H](CN(C)C(=O)NC2CCCCC2)Oc2c(cccc2N(C)C)C1=O	3930	-12
O=Nc1nc2ncccn2c1-c1ccccc1	4263	-16

Entries from the list above that contain an NH in an aromatic ring, in the order listed:
SMILES	Autofluor counter	PrP 5UTR inh
O=c1[nH]c2cnn(-c3ccccc3)c2c(=O)n1O	3972	50
Cc1c(Cl)cccc1Nc1n[nH]c(=S)s1	3540	71*
O=C1CC/C=C\C[C@@H](CC(=O)N(CCO)Cc2ccccc2)C(=O)N[C@H](Cc2c[nH]c3ccccc23)CO1	4435	-20
C=CC[C@@H](CC(=O)NCCO)C(=O)N[C@@H](COC(=O)[C@@H](CC=C)CC(=O)OC(C)(C)C)Cc1c[nH]c2ccccc12	4224	-45
N#Cc1c(N)[nH]c2ccc(Sc3ccccc3)cc12	3715	48
CCC1CN2CCc3cc(OC)c(OC)cc3C2CC1CC1c2cc(OC)c(OC)cc2CCN1C(=O)C(Cc1c[nH]c2ccccc12)NC(=O)OC(C)(C)C (configuration not stated)	6036	-22
CC(C)C[C@@H](CN)NC(=O)c1nc[nH]c1C(=O)N[C@@H](Cc1ccccc1)C(=O)CNC[C@H](C)NC(=O)c1nc[nH]c1C(=O)N[C@@H](C)C(=O)O	3894	4
C[C@@H](NC(=O)c1nc[nH]c1C(=O)N1CCc2ccccc2C1)c1ccccc1	3843	-13
O=S1(=O)CCN(c2ccccc2CC(c2c[nH]c3ccccc23)c2c[nH]c3ccccc23)CC1	3734	-22
CCOc1nc(OCC)c2[nH]c(C(=O)O)c(Br)c2n1	4188	-28
